Source: PubChem BioAssay (several laboratories)
Insulin prom inh = TRM-6 insulin promoter activity inhibition. TRM-6 cells (human fetal islet line), insulin promoter-eGFP reporter, imaging; reporter expression induced with tamoxifen. inhibition, % at 2 µM. 130,000 tested, 0.9% active. AID 1273;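 active = inhibition above the mean plus 3 SD, with well images judged a real hit on visual review, cut at about 60% in these data, passing the limit was not always enough; inconclusive = inhibition over the cutoff but images rejected on review; inactive = inhibition not above the cutoff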
RGS16-Gao = RGS16-Galphao interaction regulator (human); O15492+P09471; bead-based flow cytometry RGS16-Galphao binding, fluorescence; actives lie on both sides; binding response (% of control), % at 10 µM; 220,000 tested, 0.38% active; AID 1441;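 active = below 25% or above 175%, edge rows of some plates excepted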;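 note: Galphao activated by GDP with aluminum fluoride before binding; 100% = wells without compound and 0% = beads without RGS; some results beyond the cut were filed as inactive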
Target sequence (O15492 whole entry, looked up): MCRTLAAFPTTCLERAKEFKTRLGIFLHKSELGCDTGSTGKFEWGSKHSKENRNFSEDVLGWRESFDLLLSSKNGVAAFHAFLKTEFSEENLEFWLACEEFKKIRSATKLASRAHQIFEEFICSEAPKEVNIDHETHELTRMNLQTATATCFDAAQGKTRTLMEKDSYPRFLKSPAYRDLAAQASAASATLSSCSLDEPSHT
Target sequence (P09471 whole entry, looked up): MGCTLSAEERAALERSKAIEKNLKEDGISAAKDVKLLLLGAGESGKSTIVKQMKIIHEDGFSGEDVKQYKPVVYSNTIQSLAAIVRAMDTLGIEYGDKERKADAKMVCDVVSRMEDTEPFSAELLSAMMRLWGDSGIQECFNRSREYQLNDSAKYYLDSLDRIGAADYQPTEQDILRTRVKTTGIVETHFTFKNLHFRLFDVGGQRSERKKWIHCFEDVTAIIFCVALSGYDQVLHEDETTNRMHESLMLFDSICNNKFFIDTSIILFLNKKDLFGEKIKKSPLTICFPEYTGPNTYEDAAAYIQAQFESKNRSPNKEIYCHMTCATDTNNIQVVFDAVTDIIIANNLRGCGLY
GALR2 agonist = GALR2 (human) receptor agonism; AID 803; GALR2-expressing cells, agonist activation read-out; 140,000 tested, 0.48% active; activation, %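 (tested at 5 µM)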; O43603;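 active = above mean plus 3 SD of all compounds, about 5% in these data, not always enough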;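 note: 0% = vehicle buffer wells and 100% = reference agonist at full effect; tested in CHO reporter cells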
Target sequence (O43603 whole entry, looked up): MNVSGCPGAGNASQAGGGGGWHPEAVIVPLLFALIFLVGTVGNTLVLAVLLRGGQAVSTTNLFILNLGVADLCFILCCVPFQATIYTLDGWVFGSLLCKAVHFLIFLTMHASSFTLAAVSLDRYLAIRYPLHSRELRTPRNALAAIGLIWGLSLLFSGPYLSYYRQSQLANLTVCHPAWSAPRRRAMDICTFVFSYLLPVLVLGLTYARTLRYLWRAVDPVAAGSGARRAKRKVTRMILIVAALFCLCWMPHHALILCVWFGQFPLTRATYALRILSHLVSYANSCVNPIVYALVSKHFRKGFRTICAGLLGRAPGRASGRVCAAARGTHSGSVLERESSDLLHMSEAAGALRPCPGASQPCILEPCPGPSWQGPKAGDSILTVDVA
PKD1 inh = inhibitors of human PKD1 kinase | Q15139 | 200,000 tested, 0.056% active | PKD1 kinase fluorescence polarization assay | AID 797 | inhibition, %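 (about 10 µM by stock and volumes)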;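 active = inhibition of 50% or more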;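 note: controls were vehicle for no effect and a reference inhibitor for full effect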
HSV augment = increases HSV replication in cells; HSV replication augmentation in cells, fold increase; maximum fold increase; 220,000 tested, 0.005% active; AID 1956;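 active = peak rise of 1.5-fold or more in the series; inconclusive = self-fluorescent or not available for retest; tested in PC3 cells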;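 note: first round at 10 µM; read as green reporter fluorescence; hits show the peak of a series up to 25 µM; 1 = signal of infected wells without compound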
Insulin prom inh cell count = also measured in Insulin prom inh; calls as there; normalized cell count, %; measured here: cell count, toxicity; reference of the scale not given here;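 cells exposed to compound for 48 h; stained nuclei by imaging scaled within each plate; lower means fewer cells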
HSV augment primary fold = second read-out of HSV augment, no call of its own (marks repeat the call); fold increase; compound at 10 µM; measured here: primary screen fold increase 10 uM; tested in PC3 cells;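 GFP signal in the first replicate; 1 = infected wells without compound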
* marks the source's active call; other numbers are inactive results; i = inactive; ? = inconclusive; · = not tested or not shown; & = joins results of further samples; [ ] = remark or other dose.

SMILES | Insulin prom inh | Insulin prom inh cell count | RGS16-Gao | GALR2 agonist | PKD1 inh | HSV augment | HSV augment primary fold
CCCCN1C(=O)/C(=C2/Sc3ccccc3N2C)S/C1=N\c1ncn[nH]1 | 17 | 120 | 99 | · | 12 | i | 0.87
Cc1c(C)[n+](=O)c2c(n1[O-])C(Br)CCC2Br (configuration not stated) | · | · | 95 | · | · | i | 0.83
COc1ccc(N2CCN(Cc3oc(CO)cc(=O)c3O)CC2)cc1 | 6 | 150 | 89 | -0.7 | -7 | i | 0.89
Cc1onc(-c2ccccc2Cl)c1C(=O)OCN1C(=O)c2ccccc2C1=O | 25 | 78 | 100 | -2.0 | -1 | i | 1
COc1ccc2c(c1)OC1=C(C(=O)CCC1)C2C1=C(O)CCCC1=O (configuration not stated) | -3 | 74 | 105 | -2.3 | -11 | i | 1
Cc1ccccc1NC(=S)N(C)Cc1cccs1 | -13 | 96 | 101 | -2.4 | -3 | i | 0.88
O=c1[nH]cnc2c1c(-c1ccccc1)cn2-c1ccc(Br)cc1 | 19 | 104 | 105 | 0.1 | -1 | i | 1
N#Cc1cccc(NC(=O)COC(=O)c2cccc(N3C(=O)c4ccccc4C3=O)c2)c1 | 56 | 115 | 105 | -1.4 | -3 | i | 0.92
Cc1cccc(-n2cccc2)c1C#N | · | · | 107 | 0.9 | -5 | i | 1.1
CC(C)(C)Cc1nnc(NC(=O)CN2C(=O)c3ccccc3C2=O)s1 | 13 | 130 | 99 | · | 7 | i | 0.99
COC(=O)c1ccccc1NC(=O)C1CC(c2ccc(F)cc2)=NO1 (configuration not stated) | · | · | 103 | 0.0 | -4 | i | 0.87
CCn1cnc2sc(C)c(C)c2c1=O | 7 | 79 | 102 | -0.8 | -1 | i | 0.93
COc1ccc(CCNC(=O)c2cc(-c3ccc(C)c(C)c3O)n[nH]2)cc1OC | 25 | 112 | 105 | -2.6 | 0 | i | 0.86
CCCC(=O)Nc1ncnc2c1ncn2[C@@H]1O[C@@H]2COP(=O)(O)O[C@H]2[C@H]1OC(=O)CCC | 19 | 135 | 31 | -0.7 | 2 | i | 1
COc1ccccc1C(=O)Nc1ccccc1C(=O)N1CCCC1 | -6 | 78 | 106 | -0.6 | 2 | i | 0.98
C=C(C)CSc1cc(C)c(C#N)c2nc3ccccc3n12 | · | · | 95 | -0.7 | -1 | · | ·
Cn1c(=O)c2c(nc(SCc3nc(N)nc(N4CCCCC4)n3)n2C)n(C)c1=O | 3 | 135 | 104 | -0.3 | -4 | i | 0.85
CC1(CC(=O)N/N=C/c2ccc(-c3cccc(C(F)(F)F)c3)o2)OCCO1 | 36 | 81 | 204*[activator] | -1.2 | 1 | i | 0.87
Cc1ccc(S(=O)(=O)NC2(C(F)(F)F)C(=O)Nc3c2c(=O)n(C)c(=O)n3C)cc1 (configuration not stated) | 0 | 92 | 102 | -1.1 | -2 | i | 0.72
COc1ccc([N+](=O)[O-])cc1NC(=O)CCNC(=O)Cn1ccc2ccccc2c1=O | · | · | 97 | · | -6 | i | 0.84
COc1ccc(C2=NN(CN3C(=O)C(=O)c4ccccc43)C(c3ccc(Br)cc3)C2)cc1 (configuration not stated) | -64 | 120 | 105 | -1.8 | -5 | i | 0.94
COc1ccc(CC(=O)Nc2nnc(C(C)C)s2)cc1 | · | · | 110 | · | 6 | i | 0.89
COCCn1nnnc1C(c1ccccn1)N1CCN(c2cc(Cl)ccc2C)CC1 (configuration not stated) | -32 | 54 | 97 | -2.1 | -3 | i | 0.99
CC1=C(C(=O)NCc2ccccc2)C(c2cccs2)NC(=S)N1 (configuration not stated) | · | · | 100 | · | 2 | i | 0.95
COc1ccccc1S(=O)(=O)Cc1ccc(C(=O)NC2CCCCC2)o1 | · | · | 108 | -1.9 | 10 | · | ·

Results in PKD1 inh, for 4 of the compounds above:
compound | PKD1 inh
Cn1c(=O)c2c(nc(SCc3nc(N)nc(N4CCCCC4)n3)n2C)n(C)c1=O | -4
CC1(CC(=O)N/N=C/c2ccc(-c3cccc(C(F)(F)F)c3)o2)OCCO1 | 1
Cc1ccc(S(=O)(=O)NC2(C(F)(F)F)C(=O)Nc3c2c(=O)n(C)c(=O)n3C)cc1 (configuration not stated) | -2
COc1ccc([N+](=O)[O-])cc1NC(=O)CCNC(=O)Cn1ccc2ccccc2c1=O | -6

The main list resumes, repeating the two entries before the break.
SMILES | Insulin prom inh | Insulin prom inh cell count | RGS16-Gao | GALR2 agonist | PKD1 inh | HSV augment | HSV augment primary fold
CC1=C(C(=O)NCc2ccccc2)C(c2cccs2)NC(=S)N1 (configuration not stated) | · | · | 100 | · | 2 | i | 0.95
COc1ccccc1S(=O)(=O)Cc1ccc(C(=O)NC2CCCCC2)o1 | · | · | 108 | -1.9 | 10 | · | ·
COC(=O)c1cc(=O)n(Cc2ccco2)c(=Nc2ccc(F)cc2)s1 | · | · | 105 | · | 3 | i | 0.45
Cc1cc2ccccc2c(=O)n1CC(=O)NCc1ccco1 | -45 | 90 | 99 | -1.2 | -6 | i | 0.95
COc1ccc(Cc2noc(COc3ccc(Cl)cc3)n2)cc1 | -32 | 169 | 100 | -1.7 | 1 | i | 1.1
CCCC(C)NC(=O)CSc1nc2ccc(C)cc2[nH]1 (configuration not stated) | -27 | 106 | 113 | · | 2 | i | 0.94
Cc1ccc(C2CC(c3ccccc3)=NN2C(=S)Nc2ccccc2)o1 (configuration not stated) | 30 | 94 | -20* | -1.9 | -3 | i | 0.92
CCCCOc1ccccc1Cn1c(=O)oc2ccc(C)cc21 | -6 | 108 | 101 | 0.7 | -9 | i | 0.89
Cc1ccsc1-c1n[nH]c(=S)n1C1CCCCC1 | -25 | 79 | 97 | 0.7 | -13 | i | 0.9
CC1(C)CC(=O)C(CC2C(=O)CC(C)(C)CC2=O)C(=O)C1 | · | · | 97 | · | · | i | 1
Cc1cc(=O)oc2cc(NS(=O)(=O)c3ccccc3)ccc12 | · | · | 100 | · | · | i | 1
CCOC(=O)N1CCC(NC(=O)c2cc(-c3ccc(F)cc3)[nH]c2C)CC1 | 21 | 53 | 101 | -1.5 | -8 | · | ·
CCOC(=O)c1cc(-c2ccccc2)nc2nc(N3CCCCC3)sc12 | 8 | 145 | 98 | -0.1 | -12 | i | 1
COC(=O)c1ccc(C23CC4(C2)[C@H](CN(Cc2ccc(C(F)(F)F)cc2)[C@@H]4c2ccccc2)C3c2ccc(C(F)(F)F)cc2)cc1 (some centres not stated) | · | · | 104 | · | · | i | 0.91
COc1ccc(NCN2C(=O)CCC2=O)cc1 | -3 | 92 | 98 | -0.3 | -4 | i | 1.1
Cc1ccc(S(=O)(=O)N2CCN(C(=O)Cn3nc(C(=O)O)c4ccccc4c3=O)CC2)cc1 | · | · | 95 | · | · | i | 0.88
COc1cc2nc(CN3CCN(C(C)=O)CC3)[nH]c(=O)c2cc1OC | · | · | 98 | · | -4 | i | 0.97
O=C1NC(=S)N/C1=C\C=C\c1ccccc1 | · | · | 103 | · | · | i | 1
CC(=O)Nc1nc2c(ncn2COCCOC(C)=O)c(=O)[nH]1 | -369 | 63 | 101 | -1.0 | 1 | i | 0.84
N#Cc1c2c(c(NCCCN3CCOCC3)n3c1nc1ccccc13)CCC2 | · | · | 102 | 1.9 | -4 | i | 1
Cc1ccc2c(c1)N(CCC(=O)NCc1ccccn1)C(=O)CO2 | 15 | 135 | 100 | -1.8 | -10 | i | 0.93
Cc1cc(C)cc(N(CC(=O)NC2CCCCCC2)S(=O)(=O)c2c(C)[nH]c(=O)[nH]c2=O)c1 | · | · | 100 | · | · | i | 0.97
COc1ccc(/C=C/C(=O)NCC2COc3ccccc3O2)c(OC)c1 (configuration not stated) | 20 | 112 | 108 | · | 0 | i | 0.64
Cc1ccccc1OCC(=O)OCC(=O)c1ccc(OC(=O)c2ccccc2)cc1 | 25 | 91 | 100 | -2.5 | -5 | i | 1.1
O=C(CSC1=NCCS1)Nc1ccc(F)cc1 | · | · | 100 | · | -6 | i | 1
CC1(C)CC(=O)C=C(NCc2ccco2)C1 | -38 | 61 | · | -2.3 | -4 | i | 0.9
CCO[C@H]1OC(C(=O)N2CCN(C)CC2)=C[C@@H](C2CC2)[C@@H]1CCCO | · | · | 98 | · | -4 | i | 1.1
Additional results.
SMILES | Insulin prom inh | Insulin prom inh cell count | RGS16-Gao | GALR2 agonist | PKD1 inh | HSV augment | HSV augment primary fold
CCc1nc(NCCO)c(C#N)c2c1CSC(C)(C)C2 | · | · | 102 | · | · | i | 1.1
Cc1csc2c(=O)sc(NC(=O)c3ccco3)nc12 | · | · | 98 | · | · | i | 1.1
COc1ccc(OCC(=O)OC2CCN(C)CC2)cc1 | -4 | 86 | 106 | 0.0 | -8 | i | 0.96
Cc1ccc(C(C)NC(=O)c2ccco2)cc1C (configuration not stated) | -25 | 77 | 96 | -0.2 | -1 | i | 1.1
O=C(O)CSc1nc2c(c(C(F)(F)F)n1)CCc1ccccc1-2 | · | · | 103 | · | 2 | i | 1
C/C(=N\NC(N)=S)c1ccccc1 | · | · | 97 | · | · | i | 0.95
Cc1ccc(NC(C)c2cc(Cl)ccc2O)cc1 (configuration not stated) | -3 | 66 | 101 | -0.6 | -4 | i | 0.95
COc1cccc(C2C(C(N)=O)=C(C)Nc3nc(-c4cccc(Cl)c4)nn32)c1 (configuration not stated) | 0 | 122 | 106 | -0.3 | -1 | i | 0.9
COCCCn1c(C2CCCCC2)nc2oc3cc(OC)ccc3c(=O)c2c1=O | · | · | 126 | 0.5 | -3 | i | 0.98
O=C(NCc1cccs1)C(=O)NCC1OCCCN1S(=O)(=O)c1ccccc1 (configuration not stated) | -7 | 80 | 98 | 0.1 | -8 | i | 0.88
Cn1cnnc1SCC(=O)Nc1cc(C(F)(F)F)ccc1N1CCOCC1 | 0 | 109 | 108 | · | -6 | i | 0.95
CCO[C@@H]1OC(C(=O)N2CCCCCCC2)=C[C@H](c2cn(C(C)=O)c3ccccc23)[C@H]1CCCO | · | · | 100 | · | -6 | · | ·
COc1ccc2nc(/C=N/NC(=O)CCCCCNC(=O)OC(C)(C)C)ccc2c1 | · | · | 100 | · | · | i | 1.1
COc1ccc(CNC(=O)c2c([S-])n(-c3ccc(C)cc3)c3cccc[n+]23)cc1 | · | · | 103 | · | 7 | i | 0.96
CC1COC(c2cccn2Cc2ccccc2Cl)=N1 (configuration not stated) | 25 | 78 | 62 | -2.2 | 14 | i | 0.97
COc1cc(NC(=O)COC(=O)/C=C/c2ccc(OC)c(OC)c2)cc(OC)c1 | 29 | 111 | 98 | · | 4 | i | 1
NS(=O)(=O)c1ccc(CCNC(=O)C2CCN(S(=O)(=O)c3c(Cl)cccc3Cl)CC2)cc1 | · | · | 96 | · | · | i | 1
NC(=O)c1nsc(C(=O)N(CCc2ccccc2)C(C(=O)NC2CCCC2)c2ccco2)c1N (configuration not stated) | -17 | 114 | 102 | -0.7 | -3 | i | 0.92
Cc1ccc(Cn2ccc(NC(=O)c3noc4c3CCCC4)n2)cc1 | · | · | 101 | -0.4 | -23 | i | 1.1
O=C(Nc1ccc(NC(=O)C2CCCCC2)cn1)c1ccco1 | 50 | 165 | 102 | -0.7 | -18 | i | 0.86
O=C(Nc1ccc(C2=NCCN2)cc1)c1ccc(Cl)c(C(=O)Nc2ccc(C3=NCCN3)cc2)c1 | · | · | 105 | · | · | i | 0.97
CCOC(=O)/C(C#N)=C/c1c[nH]c2ccccc12 | -60 | 88 | 103&101 | -0.8 | 8 | i | 1.1&0.91
Cc1nc2ccc(NC(=O)c3cccc(C(F)(F)F)c3)cc2o1 | 32 | 100 | 107 | -1.6 | 6 | i | 0.76
CCc1nnc(SCc2ccc(C(=O)OC)o2)n1N | 29 | 89 | 104 | -2.7 | -10 | i | 1.1
COc1ccc(-c2cc(=O)c3cc(F)ccc3[nH]2)cc1 | -5 | 55 | 101 | -2.1 | -14 | i | 0.82
CC(C)C(=O)NC(c1ccccc1Cl)c1c(O)ccc2ccccc12 (configuration not stated) | -3 | 128 | 102 | -2.6 | -1 | i | 0.91
Cc1cc(C)cc(-n2c(SCC(=O)Nc3cccc(S(=O)(=O)NC4=NCCCCC4)c3)nc3ccccc3c2=O)c1 | · | · | 105 | 0.9 | 13 | i | 1.1
C=CCCN(C(C(=O)OC)C(C)C)S(=O)(=O)c1ccccc1Br (configuration not stated) | · | · | 91 | · | · | i | 0.9
CCC(C)NC(=O)C1CCN(S(=O)(=O)c2cccnc2)CC1 (configuration not stated) | -46 | 155 | 101 | -0.4 | -10 | i | 0.92
O=C(Cn1nc2ccccc2n1)N/N=C/c1cc([N+](=O)[O-])ccc1O | 35 | 176 | 83 | · | 1 | ? | ·
